Screening results (PubChem BioAssay)
HNF4A DNA FP: change in binding of human HNF4A to DNA, primary screen, biochemical, fluorescence polarization, FITC-DNA; Hepatocyte nuclear factor 4-alpha (Homo sapiens), P41235; 1 h; activity change, % at 10 µM; 360,000 compounds, 0.3% hits; in the data active means activity change above about 30%, passing the limit was not always enough;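 further: controls were the assay level and a saturating level of protein; the project sought stronger binding though the title names inhibitors; some compounds called inactive have numbers as strong as hits; positive values seem to mean higher polarization but the record does not say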
Beta2AR agonist: beta2AR agonists driving receptor internalization, primary screen, cell-based, FAP fluorogen, flow cytometry | Beta-2 adrenergic receptor (Homo sapiens), P07550 | Am2.2-beta2AR cells; reference of the scale not given here | response, % (test concentration not listed) | 340,000 compounds, 0.43% hits | AID 504454, 2011;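 active means response above a set limit, near 3 SD of response in nonfluorescent compounds, cut at about 42% in these data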;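 further: stock transfer was 100 nL into about 11 µL; a reference agonist was the positive control; negative values mostly stem from fluorescent compounds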
Target sequence (P07550 whole entry, looked up): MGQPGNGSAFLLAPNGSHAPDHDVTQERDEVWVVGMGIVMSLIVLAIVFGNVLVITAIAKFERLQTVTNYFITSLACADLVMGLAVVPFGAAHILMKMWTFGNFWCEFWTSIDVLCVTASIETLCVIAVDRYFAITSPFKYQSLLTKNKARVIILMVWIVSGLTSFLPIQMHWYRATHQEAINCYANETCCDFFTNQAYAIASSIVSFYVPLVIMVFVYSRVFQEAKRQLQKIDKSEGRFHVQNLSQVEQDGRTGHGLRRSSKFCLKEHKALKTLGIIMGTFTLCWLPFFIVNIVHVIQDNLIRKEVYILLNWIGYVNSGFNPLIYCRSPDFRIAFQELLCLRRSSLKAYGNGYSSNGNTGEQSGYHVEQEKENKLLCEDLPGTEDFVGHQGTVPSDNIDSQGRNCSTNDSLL
FGF22 binding: binders of human FGF22 protein, primary screen, FGF22 synaptogenesis inhibitor project, biophysical, thermal shift, single point. calls only at 9.99 µM. 340,000 compounds, 1.5% hits. recombinant FGF22 thermal shift, SYPRO orange fluorescence; percent of sucrose octasulfate shift, DMSO zero;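 active means melting point raised past a set limit in the mean and every replicate; three in four hits are not shown here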
Target sequence (Q9HCT0 whole entry, looked up): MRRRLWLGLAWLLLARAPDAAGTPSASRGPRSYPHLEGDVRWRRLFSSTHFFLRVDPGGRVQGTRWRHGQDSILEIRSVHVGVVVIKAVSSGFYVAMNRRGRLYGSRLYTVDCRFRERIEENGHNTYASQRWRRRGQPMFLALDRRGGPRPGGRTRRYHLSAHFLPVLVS
UCH37 inh: inhibitors of human UCH37 deubiquitinase, primary screen, biochemical, Ub-AMC cleavage, fluorescence. 330,000 compounds, 0.33% hits. AID 588478, 2011. purified proteasome/UCH37. inhibition, % (concentration not given with the values). Ubiquitin carboxyl-terminal hydrolase isozyme L5 (Homo sapiens), Q9Y5K5;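 active means mean of two replicates above 20%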;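 further: 0% = compound-free wells with enzyme and 100% = wells lacking proteasome; stock transfer was 100 nL into about 20 µL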
Target sequence (Q9Y5K5 whole entry, looked up): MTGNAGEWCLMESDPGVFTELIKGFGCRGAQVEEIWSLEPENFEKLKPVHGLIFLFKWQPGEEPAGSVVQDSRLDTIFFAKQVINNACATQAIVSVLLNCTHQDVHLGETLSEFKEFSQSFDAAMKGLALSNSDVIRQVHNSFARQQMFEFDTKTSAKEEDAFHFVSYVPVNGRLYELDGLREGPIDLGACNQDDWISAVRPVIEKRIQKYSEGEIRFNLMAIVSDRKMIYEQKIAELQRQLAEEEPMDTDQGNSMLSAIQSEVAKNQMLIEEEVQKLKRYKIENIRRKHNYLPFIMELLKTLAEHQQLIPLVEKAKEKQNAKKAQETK
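Material: human UCH37 enzyme supplied as purified proteasome complex. Measure: % inhibition of Ub-AMC cleavage fluorescence. Medium: pH 7.4 Tris-HCl (50 mM) with ovalbumin, ATP-MgCl2, DTT. Times: 30 min preincubation with enzyme, 25 min cleavage at room temperature. Detection: AMC fluorescence intensity at 355/460 nm.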
Ecoli growth: E. coli growth inhibition, primary screen, OD600. Escherichia coli growth, 23 h; stronger effect = lower value. OD600 absorbance (concentration not given with the values). 330,000 compounds, 0.21% hits;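 active means OD600 absorbance below the run mean of sample wells minus 3.6 SD, in any replicate, cut at about 0.56 in these data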;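 further: stock transfer was 300 nL into about 60 µL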
ALR inh: inhibitors of human ALR sulfhydryl oxidase, primary screen, biochemical, H2O2 detection, HRP-luminol luminescence, single point; inhibition, % (no concentration beside the values); purified ALR, DTT oxidation; 290,000 compounds, 3.8% hits; FAD-linked sulfhydryl oxidase ALR (Homo sapiens), P55789;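 active means mean and each replicate at 75% or more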;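 further: stock transfer was 7.5 nL into about 7.5 µL; 0% = neutral wells and 100% = wells with inactivated enzyme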
LANA-H2A inh: blockers of LANA interaction with H2A/H2B – biochemical, FP readout, HTS, primary screen; AID 2629, 2010; inhibition, % (test concentration not listed); cell-free LANA-H2A/H2B peptide, fluorescence polarization; Protein LANA1 (Human herpesvirus 8 type P (isolate GK18)), Q9QR71; 320,000 compounds, 0.6% hits; in the data active means inhibition mostly above about 10%, no sharp cut-off; inactive means mostly below about 6.7%;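 further: stock transfer was 7.5 nL into about 10 µL; 0% = median of vehicle wells and 100% = median of positive control wells; one replicate is shown; the record names a cut of 25% in any replicate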
* marks the source's active call; other numbers are inactive results; i = inactive; . = not tested or not shown; + = active, no number; & = joins results of further samples. A portion of the library; rates above refer to the full screens.

SMILES	HNF4A DNA FP	Beta2AR agonist	FGF22 binding	UCH37 inh	Ecoli growth	ALR inh	LANA-H2A inh
CC1CCCCN1S(=O)(=O)c1ccc(S(=O)(=O)N2CCCC2)cc1 (centres undefined)	-0.1	6	.	.	.	.	-4.9
Cc1[nH]n(-c2ccccc2)c(=O)c1C(=O)c1ccc([N+](=O)[O-])cc1	-0.5	-2	i	4.2	0.68	-11	-0.4
CC1CN(C(=O)/C(=C/c2ccco2)NC(=O)c2ccccc2)CC(C)O1 (centres undefined)	0.7	-2	i	2.8	0.68	52	-0.7
COc1ccccc1OCCn1c(=O)oc2ccc(C)cc21	2.6	8	.	1.5	0.66	.	0.6
c1cncc(-c2ccc3ncnc(NCc4cccs4)c3c2)c1	0.2	-5	i	2.9	0.66	1	5.8
CCn1nc(C)c(CNC(=O)CCc2nnc(-c3ccc(C(C)=O)s3)o2)c1C	0.1	3	i	1.2	0.71	-3	-3.3
COc1cccc(NC(=S)N2CCCN(Cc3ccc(F)cc3)C2)c1	2.2	0	i	2.4	0.65	-4	1.3
CCc1ccc(CN(C)CC(=O)Nc2ccccc2[N+](=O)[O-])cc1	-0.3	12	.	1.2	0.7	-1	2.6
CSc1cccc(NC(=O)CSc2ccc(C)cc2)c1	-6.8	1	.	-1.3	0.78	-1	-1.3
CCOc1ccccc1CN1CCN(S(=O)(=O)CC)CC1	2.6	-2	.	2.3	0.71	-7	-3.5
CCCCCc1ccc(-c2cn(CCCOCc3ccccc3)nn2)cc1	0.2	-5	+	4.4	0.65	-11	-0.5
CS(=O)(=O)N(CC(=O)Nc1c(F)cccc1F)c1ccc(C23CC4CC(CC(C4)C2)C3)cc1	0.5	-3	.	1.0	0.71	-5	-1.9
CN(CC(=O)Nc1ccc(F)cc1)CC(=O)Nc1ccc(Cl)c(S(=O)(=O)N2CCOCC2)c1	-2.6	0	i	1.5	0.64	7	3.4
Cn1c(CO)cnc1SCc1ccc(Cl)cc1	-2.6	-2	.	1.4	0.66	-4	0.0
CCN(CC)CCN(Cc1cc2cc3c(cc2[nH]c1=O)OCCO3)C(=S)NCC1CCCO1 (centres undefined)	-4.1	-2	i	-148	0.68	-10	10
CCN1CCN(C(=O)c2cc3cc([N+](=O)[O-])ccc3oc2=O)CC1	0.1	0	i	7.9	0.69	-5	-3.4
O=C(COC(=O)C1CC1)Nc1ccc(S(=O)(=O)N2CCOCC2)cc1	-0.9	4	i	1.9	0.72	-13	4.8
COc1ccccc1N1CCN(C(=O)Cn2nc3n(C)c4ccccc4n3c(=O)c2=O)CC1	.	.	.	2.3	0.72	-25	0.5
COc1ccc(S(=O)(=O)Nc2ccc(C)cc2)cc1N(C)S(=O)(=O)c1ccc(Cl)cc1	1.4	-7	.	0.6	0.74	-3	-3.2
Cc1ccc(NC(=O)COc2ccc(Br)cc2CO)cc1	1.6	6	.	4.1	0.68	2	-9.7
COc1ccc(C(=O)/C=C/Nc2cccc(C)n2)cc1OC	1.4	-10	.	-9.9	0.73	-14	0.1
CCN1C(=O)[C@H]2[C@H]3CN=C(SCc4ccccc4)N3[C@@](Cc3ccccc3)(C(=O)OC)[C@H]2C1=O	-5.0	-8	i	5.5	0.72	.	.
Cc1cc(C)c2c(n1)sc1c(N3CCN(C)CC3)ncnc12	0.3	-9	i	-1.2	0.64	-1	1.2
Cc1ccc(NC(=O)CNC2CCS(=O)(=O)C2)cc1C (centres undefined)	-2.8	-8	i	-1.1	0.71	.	.
Cc1ccc(CN2CCN(Cc3cn(C)nc3-c3ccccc3)CC2CCO)o1 (centres undefined)	3.2	-4	i	5.6	0.66	0	1.6
Cn1c(=O)c2c(nc(SCC(=O)NCc3ccco3)n2C)n(C)c1=O	-2.7	-1	.	-0.3	0.64	-4	1.0
CCN(c1ccccc1)c1cc(C)nc2nc(C)nn12	-3.4	3	i	2.4	0.74	.	2.3
N#C/C(=C\c1ccc[nH]1)C(=O)c1ccccc1	0.2	-1	i	12	0.68	-4	-5.0
CCOc1ccc(-n2c(COc3ccc(C)cc3)nnc2SCC(N)=O)cc1	5.9	-14	.	2.4	0.69	14	-1.4
COc1ccc(-c2csc(-c3cc4ccccc4oc3=N)n2)cc1	6.1	-11	.	-45	0.7	-2	-1.3
CCOc1ccc(C(NC(C)=O)c2ccc(OC)c(OC)c2)cc1 (centres undefined)	1.7	-4	i	4.8	0.7	-3	-7.6
CCN(CC)C(=O)C1CCCN(C(=O)Nc2ccccc2)C1 (centres undefined)	3.6	3	.	-0.2	0.71	-5	1.5
COc1ccc(C(=O)Nc2ccc(S(=O)(=O)N3CCN(C)CC3)cc2)cc1	-5.0	-6	i	3.3	0.61	-4	-0.3
Cc1cccc(C)c1OCCOCCN1CCN(C)CC1	2.4&5.3	2&-1	i	2.0&5.9	0.68&0.69	-13	6.6
O=C(NCc1ccco1)c1ccc(C(F)(F)F)cc1	-2.0	-2	i	5.6	0.71	-7	0.3
C/C(=N\NC(=O)Cc1c(C)[nH][nH]c1=O)c1ccc2ccccc2c1	.	.	i	.	.	68	-3.5
Cn1c(=O)c2[nH]c(CCCCCCCc3nc4ccccc4[nH]3)nc2n(C)c1=O	5.6	-17	i	0.9	0.63	.	.
COc1cccc(CNC(=O)C2CC(=O)N(C3CCCCCCC3)C2)c1 (centres undefined)	0.3	-2	i	4.0	0.71	6	12
Cc1ccc(CC(=O)CCc2ccccc2)cc1	3.5	-2	i	5.0	0.78	-3	-0.7
CCOC(=O)c1c(C)n(S(=O)(=O)c2ccc(C)cc2)c2ccc(O)c(C(=O)O)c12	-1.8	10	i	-0.9	0.72	6	-0.3
CC1CCN(C(=O)CSc2ccc(-c3ccccc3)nn2)CC1	-1.7	-6	.	0.8	0.67	-7	2.5
CCN(CC)c1ncnc2c1sc1nc(C)cc(C)c12	3.7	-11	.	-14	0.72	14	-0.6
O=C(CCCN1C(=O)[C@H]2CC=CC[C@H]2C1=O)NCc1nc(-c2ccccc2)no1	7.4	5	i	1.6	0.67	-2	-3.1
C=CCN1C(c2cccc(C(F)(F)F)c2)=CS/C1=C(/C#N)c1nnc(N2CCOCC2)n1-c1ccccc1	7.0	4	i	9.7	0.65	.	-2.8
Cc1ccccc1-c1nc(CN2CCC(C(=O)NCCN3CCOCC3)CC2)c(C)o1	-0.6	-1	i	0.3	0.67	-5	-1.4
CCCn1c(C(C)NC(=O)c2ccccc2)n[nH]c1=S (centres undefined)	-4.0	-1	i	2.4	0.7	94*	1.3
Cc1cc(OC(=O)C2CC2)c([N+](=O)[O-])c(=O)[nH]1	0.6	-6	i	6.7	0.65	-16	3.1
O=C(N1CCCCC1)C1(S(=O)(=O)c2ccccc2)CC=CC1	4.2	4	i	4.7	0.67	.	-2.8
Cc1cccc(CCNS(=O)(=O)c2ccc3c(c2)NC(=O)CS3)c1	0.9	1	i	0.9	0.72	-1	3.5
COc1ccc2c(c1)c1ncn(Cc3ccco3)c(=O)c1n2C	1.2	5	.	i	0.7	-25	-3.8
CSc1nc2ncc(C(=O)O)c(N)n2n1	-1.1	4	i	0.3	0.7	-11	-0.1
O=C(NNC(=O)C12CC3CC(CC(C3)C1)C2)c1csc(N2CCOCC2)n1	-0.8	-9	i	-3.7	0.71	-2	-2.3
CCN(CC)C(=O)c1ccc(S(=O)(=O)c2ccccc2)cc1	-2.0	1	i	4.6	0.67	-16	+
O=C1CCCc2ccccc2N1	0.0	-3	i	-0.6	0.65	-2	1.9
O=C(c1ccc(=O)oc1)N1CCCc2ccccc21	-18	6	.	-0.4	0.75	89*	-5.4
CC(=O)O[C@H]1C2OC(=O)C(C)=C2[C@@H]2OC(=O)[C@]3(CCC4OC41C)OC23 (some centres undefined)	1.6	1	.	-2.3	.	3	-0.5
O=C(Nc1ccccc1O)c1cc2cc(Br)ccc2oc1=O	-1.1	2	i	.	.	-17	-3.5
CCCCNS(=O)(=O)c1ccc2nc(-c3cccnc3)cc(C(=O)NC(C)CC)c2c1 (centres undefined)	0.3	14	i	9.1	0.72	7	-0.5
COc1ccc(Cc2nnc(NC(=O)C3CC(=O)N(CCc4ccc(F)cc4)C3)s2)cc1OC (centres undefined)	0.1	14	i	.	.	.	-7.6
O=S(=O)(c1ccccc1)c1nc(Nc2ccccc2N2CCOCC2)sc1Cl	-2.5	8	.	3.1	0.73	6	-1.3
Next entries follow.
SMILES	HNF4A DNA FP	Beta2AR agonist	FGF22 binding	UCH37 inh	Ecoli growth	ALR inh	LANA-H2A inh
O=C(NCc1cccs1)c1cc2c(s1)CS(=O)(=O)C2	3.6	-1	i	1.3	0.65	-12	3.1
COc1ccc(NC(=S)N(CCN(C)C)C(C)c2ccco2)cc1 (centres undefined)	0.1	-6	i	4.4	0.69	-21	-2.9
CS(=O)(=O)N(CC(=O)N1CCN(c2ccccc2F)CC1)c1cc(C(F)(F)F)ccc1Cl	1.1	-2	.	0.3	0.7	-5	-5.5
C=CCC(C(=O)Oc1c(C(C)(C)C)cc(C)cc1C(C)(C)C)c1ccccc1 (centres undefined)	-0.6	8	i	2.7	.	-7	3.7
CCCc1nnc(NC(=O)CSc2ncn[nH]2)s1	1.4	0	.	-2.3	0.76	0	2.9
CCN(CC)S(=O)(=O)c1cccc(C(=O)NN2Cc3ccccc3C2=N)c1	2.4	16	i	0.3	0.71	-22	-10
CC(C)OC(=O)C1C(=O)CC(C)(O)C(C(=O)OC(C)C)C1c1ccc([N+](=O)[O-])cc1 (centres undefined)	2.2	0	i	-0.3	0.71	-2	2.8
Cc1nc(C(F)(F)F)ccc1C(=O)Nc1ccc2ccccc2n1	-1.6	-1	i	1.3	0.62	4	-2.6
COc1ccc(-c2ccc(C#N)c(OC)n2)cc1	0.9	-7	i	-100	0.69	-5	-6.0
S=C(Nc1ccc(Nc2ccccc2)cc1)NN1CCOCC1	13	-8	i	3.3	0.66	.	4.9
COc1ccc(C(=O)/C=C/Nc2ccc(S(=O)(=O)Nc3ncccn3)cc2)cc1	.	.	.	-9.9	0.67	-3	3.7
COc1ccccc1OCc1cc(C(=O)N2CCCC(OCc3cccnc3)C2)no1 (centres undefined)	-3.9	-9	i	1.4	0.7	2	0.2
